Resorufin fluor – qHTS Assay for Spectroscopic Profiling in Resorufin Spectral Region | 59,000 compounds, 0.04% hits | AID 588, 2007 | Compound fluorescence, resorufin region 547/598 nm, buffer; stronger effect = higher value | max dye-equivalent concentration, M; active = above 10 nM dye equivalent; inconclusive = 1 to 10 nM; inactive = 1 nM or less; a few of its hits are not listed in these tables; also: highest value over a series up to 38 µM
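Compounds in 100 mM Tris buffer, pH 8.0, incubated 15 min at room temperature, then read with 547 nm excitation and 598 nm emission filters. Fluorescence was converted to dye-equivalent concentration using an on-plate six-point resorufin standard curve.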
AID923 – qHTS Assay for Allosteric/Competitive Inhibitors of Caspase-1: Spectroscopic Profiling in AFC Spectral Region | 75,000 compounds, 1.1% hits | Potency, µM (titrated, usually from 57.5 µM), for the others: at the highest dose fluorescence increase, hits mostly activators | compound fluorescence, AFC spectral region (405/520 nm); almost no hit is shown here; active = well fitted activation curve with a large enough effect; inconclusive = small, poorly fitted or top-dose-only effect;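 also: potency is read from the fitted curve at half-maximal effect; 0% is about no effect; scaled to a free AFC standard on each plate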
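Titrations up to 57 uM read every 20 sec for 3 min (405/520 nm) with 50 nM caspase 1 and 5 uM Ac-WEHD-AFC, pH 7.5 HEPES buffer. Fluorescence-vs-time intercept gave baseline, scaled against on-plate AFC standard.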
A647 fluor – qHTS Assay for Spectroscopic Profiling in A647 Spectral Region | Compound fluorescence, A647 channel (570/671 nm), Tris buffer | 59,000 tested, under 10 active | max dye-equivalent concentration, M; active means above 1 µM dye equivalent; inconclusive means 0.1 to 1 µM; inactive means 0.1 µM or less;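 also: values scaled relative to a standard on each plate; highest value over a series up to 38 µM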
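Spectral profiling of library compounds in pH 8.0 Tris: 15 min room-temperature incubation, single ex/em pair (570/671 nm), response normalized to Alexa 647 equivalents.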
A488 fluor – qHTS Assay for Spectroscopic Profiling in A488 Spectral Region. compound autofluorescence, A488 spectral region, dye equivalency; stronger effect = higher value. max dye equivalency, M. 59,000 compounds, 0.1% hits; active = above 10 nM dye equivalent; inconclusive = 1 to 10 nM; inactive = 1 nM or less; about half of its hits are not listed in these tables;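 also: highest value over a series up to 38 µM; compound alone in buffer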
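Spectroscopic profiling in the A488 region: compounds in pH 8.0 Tris (100 mM), 15 min RT, CCD imaging with 480 nm excitation and 540 nm emission; responses normalized against A488 dye standards.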
TSHR ag – qHTS Assay for Agonists of the Thyroid Stimulating Hormone Receptor | AID 926, 2007 | 73,000 compounds, 0.48% hits | Potency, µM (series often up to 57.1 µM), without a hit: at the highest dose activation, most hits filed as activators | HEK293-CNG-TSHR cells (CNG channel as cAMP sensor), membrane potential dye, cAMP | Thyrotropin receptor (Homo sapiens), P16473; active = well fitted activation curve of enough size with the parental cells flat; inconclusive = any curve in the parental cells; inactive = parental cells flat and receptor cells flat or falling; also: potency is read from the fitted curve at half-maximal effect; % of control where 0% means no effect; weak receptor curves with flat parental cells got no call and are not listed
Target sequence (P16473 whole entry, looked up): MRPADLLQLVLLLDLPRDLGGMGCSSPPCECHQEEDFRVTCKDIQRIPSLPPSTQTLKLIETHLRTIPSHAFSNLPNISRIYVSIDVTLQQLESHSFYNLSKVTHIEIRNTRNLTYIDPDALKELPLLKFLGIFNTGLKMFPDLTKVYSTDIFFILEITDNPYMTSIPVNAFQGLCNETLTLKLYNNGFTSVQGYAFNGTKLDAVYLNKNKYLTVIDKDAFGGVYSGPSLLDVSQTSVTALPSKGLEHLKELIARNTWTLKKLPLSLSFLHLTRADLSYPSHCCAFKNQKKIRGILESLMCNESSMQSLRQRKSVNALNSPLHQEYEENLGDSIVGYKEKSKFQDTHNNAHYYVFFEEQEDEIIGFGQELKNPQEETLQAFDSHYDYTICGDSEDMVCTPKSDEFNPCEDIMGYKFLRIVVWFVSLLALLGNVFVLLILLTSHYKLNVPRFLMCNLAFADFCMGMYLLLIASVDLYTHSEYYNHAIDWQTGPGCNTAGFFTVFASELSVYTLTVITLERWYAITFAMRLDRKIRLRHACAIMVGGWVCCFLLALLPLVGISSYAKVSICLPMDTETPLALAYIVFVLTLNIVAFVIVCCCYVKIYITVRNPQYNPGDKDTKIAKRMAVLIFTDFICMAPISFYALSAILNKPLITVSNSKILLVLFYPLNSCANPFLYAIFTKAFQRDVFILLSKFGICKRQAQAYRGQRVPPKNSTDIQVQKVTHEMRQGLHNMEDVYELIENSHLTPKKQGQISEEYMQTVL
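HEK 293 cells stably expressing TSHR and a modified CNG channel, with CNG-only parental cells as counterscreen, were preloaded 60 min at room temperature with membrane potential dye containing 100 uM RO 20-1724. Compound exposure was 30 min, and depolarization was read as fluorescence at 590 nm.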
Active calls of the source: *; i = inactive; ? = inconclusive; . = no result given; & = joins results of further samples; [ ] = remark or other dose. These rows are one share of the data; count on the stated rates, not on these rows.

Start of the listing, in advance:
SMILES	Resorufin fluor	AID923	A647 fluor	A488 fluor	TSHR ag
COc1cccc(C2C(C#N)=C(N)OC(C(C)(C)C)=C2C#N)c1 (stereo not given)	i	2.6%	3.3e-08	i	-14%
CCCC(C)c1nnc(NC(=O)C2CCCO2)s1 (stereo not given)	i	1.6%	1e-09	i	?
Cc1cc(Cl)ccc1OCCCC(N)=O	i	-1.2%	2.4e-09	i	-1%
Cc1nc2ccccc2c2oc(C(=O)NCc3ccc4c(c3)OCO4)cc12	.	2.9%	.	.	?
Cc1ccc(C2CC(=O)N3CN(Cc4ccco4)CSC3=C2C#N)cc1 (stereo not given)	i	-1.6%	2.9e-09	i	2%

The listing (from the top)
SMILES	Resorufin fluor	AID923	A647 fluor	A488 fluor	TSHR ag
COc1cccc(C2C(C#N)=C(N)OC(C(C)(C)C)=C2C#N)c1 (stereo not given)	i	2.6%	3.3e-08	i	-14%
CCCC(C)c1nnc(NC(=O)C2CCCO2)s1 (stereo not given)	i	1.6%	1e-09	i	?
Cc1cc(Cl)ccc1OCCCC(N)=O	i	-1.2%	2.4e-09	i	-1%
Cc1nc2ccccc2c2oc(C(=O)NCc3ccc4c(c3)OCO4)cc12	.	2.9%	.	.	?
Cc1ccc(C2CC(=O)N3CN(Cc4ccco4)CSC3=C2C#N)cc1 (stereo not given)	i	-1.6%	2.9e-09	i	2%
O=C(NCc1ccccn1)C1CCN(S(=O)(=O)c2cccs2)CC1	i	-0.3%	4.6e-09	i	-2%
COc1ccccc1C(=O)n1nc(-c2ccc(Cl)cc2)nc1N	i	-2.1%	1.9e-08	i	12%
COCCNC(=O)c1cc2c(-c3ccccc3F)nn(C)c2s1	i	-0.4%	3.8e-09	i	?
Cc1ccc(S(=O)(=O)NCc2cn3ccsc3n2)c(C)c1	i	-1.5%	1.8e-08	i	-1%[11.4 µM]
CC(=O)Nc1nonc1NC(=O)CSc1ncn[nH]1	i	-1.2%	2.2e-08	i	3%[11.4 µM]
COC(=O)c1ccc(CSc2nnc(SCc3ccc(C(=O)OC)o3)s2)o1	i	0.0%	2.3e-09	i	?
COc1ccc(C2/C(=C(\O)c3ccc4c(c3)OCCO4)C(=O)C(=O)N2CCCN(C)C)c(OC)c1 (stereo not given)	i	-0.4%	2.7e-09	i	6%
CCCC(=O)Nc1ccc(NC(=O)c2ccccc2Cl)nc1	i	0.2%	1e-09	i	10%
Cc1onc(-c2ccccc2Cl)c1C(=O)Nc1cccc(-c2cn3cccnc3n2)c1	i	0.4%	2.2e-08	i	21%
Cc1cccc(NC(=O)c2ccc(S(=O)(=O)N(C)C)cc2)c1	.	-0.6%	.	.	?
Cc1cc(NC(=O)C23CCC(C)(c4nc5cc(Cl)c(Cl)cc5nc42)C3(C)C)no1 (stereo not given)	i	-1.7%	1e-09	i	3%
CC(=O)[C@@]1(O)Cc2c(O)c3c(c(O)c2[C@H](O[C@H]2C[C@H](N)[C@H](O)[C@H](C)O2)C1)C(=O)c1ccccc1C3=O	2.4e-08M*	2.9%	6.7e-08	2.4e-08M*	?
COC(=O)CSc1nc2ccc(NC(C)=O)cc2s1	i	3.4%	2.5e-09	i	-25%
COc1ccc(-n2ccc(=O)c3c2CCCC3=O)cc1	i	.	7.4e-08	i	.
O=C(c1ccncc1)N1CCC2(CCN(Cc3ccncc3)CC2)CC1	i	0.1%	1e-09	i	0%
COc1ccccc1-n1c(SCC(=O)Nc2ccccc2F)nc2[nH]ncc2c1=O	i	-1.1%	1.9e-08	i	?
CN1C(C)(C)CC(NC(=O)CCC(=O)NC2CC(C)(C)N(C)C(C)(C)C2)CC1(C)C	i	0.7%	1e-09	i	-5%
COC(=O)c1ccccc1NC(=O)CNC(=O)c1ccco1	i	-1.0%	5.8e-09	i	-7%
CC1CCc2nn(CC(=O)NCc3ccco3)cc2C1 (stereo not given)	.	3.5%	.	.	3%
Cn1c(SCc2nc3ccccc3s2)nnc1-c1cccs1	i	-1.1%	1e-08	i	15%

Other results
SMILES	Resorufin fluor	AID923	A647 fluor	A488 fluor	TSHR ag
CCOc1ccc(CCNC(=O)C2CCN(S(=O)(=O)N3CCOCC3)CC2)cc1OCC	i	-1.5%	6.8e-09	i	0%[11.4 µM]
CCC(C)NC(=O)CN1C(=O)CC(C)(C)S(=O)(=O)c2ccccc21 (stereo not given)	.	4.3%	.	.	?
CCC1(C)CC(c2csc(N)n2)CCO1 (stereo not given)	i	0.7%	1.2e-08	i	4%
COc1ccc(-c2cc(C(=O)N3CC4(C)CC3CC(C)(C)C4)no2)cc1OC (stereo not given)	i	2.0%	1e-09	i	2%[11.4 µM]
CCc1nnc(NC(=O)CSc2nnc(-c3ccoc3C)n2-c2ccc(C)cc2)s1	i	1.1%	6e-08	i	16µM*
CCNC(=O)NCCc1c[nH]c2ccc(Cl)cc12	i	-1.1%	1e-09	i	?
CCc1ccc(C(=O)NCc2cccs2)s1	.	-0.1%	.	.	8%
Cn1nc(C(=O)N2CCN(S(=O)(=O)c3ccccc3)CC2)c2ccccc2c1=O	i	-0.1%	2.3e-08	i	0%
Cc1nc(N2CCN(Cc3ccccc3)CC2)[nH]c(=O)c1C	i	1.5%	2.6e-08	i	-9%
COc1ccc(C(=O)N(CN2CCCC2=O)c2ccccc2OC)cc1OC	i	0.1%	3.1e-08	i	-3%
COc1ccc(NC(=O)c2cc(OC)c(OC)c(OC)c2)cn1	i	-0.4%	5.5e-09	i	18%
C=CCOc1ccc(/C(O)=C2/C(=O)C(=O)N(CCN3CCOCC3)C2c2ccc(C)cc2)cc1 (stereo not given)	i	3.2%	1e-09	i	4%
O=C(O)C1=CCCN(CCON=C(c2ccccc2)c2ccccc2)C1	i	-0.8%&-3.6%	5.7e-08	i	0%&7%
CCN(CC)S(=O)(=O)c1cccc(-c2nnc(SCC#N)n2Cc2ccccc2)c1	i	1.7%	1.2e-08	i	?
O=C(C1CCCN(S(=O)(=O)c2cccnc2)C1)N1CCn2c1nc1ccccc12 (stereo not given)	.	-3.0%	.	.	-7%
Cc1ccc(C)c(NS(=O)(=O)c2c(C)nn(C)c2C)c1	i	0.2%	6.5e-09	i	.
CC(=O)CCC(=O)NCCc1ccccc1F	.	8.6%	.	.	6%
Cc1ccc(NC(=O)c2cccc(Cl)c2)nc1	i	-1.5%	1.6e-08	i	0%
CC(Cc1ccccc1)C(=O)N1CCN(C)CC1 (stereo not given)	.	-1.6%	.	.	15%
CN(C)C(=O)c1ccc(-c2ccc3ncnc(N4CCOCC4)c3c2)cc1	i	1.7%	1e-09	i	.
O=C(NCC(O)c1ccccc1)c1cccc(S(=O)(=O)N2CCOCC2)c1 (stereo not given)	i	-2.0%	2.5e-08	i	1%
CN1CCN(Cc2c(O)ccc3occ(C(=O)c4ccccc4)c23)CC1	.	0.9%	.	.	14%
Nn1c(COc2ccccc2)nnc1SC(F)F	i	-0.9%	1e-09	i	-2%
Cc1ccc2nc(NC3=NCN(Cc4ccc5c(c4)OCO5)CN3)nc(C)c2c1	i	-0.5%	1e-09	i	0%
CNCCNS(=O)(=O)c1cccc2cnccc12	i	0.7%	3.7e-09	i	-8%

More entries follow.
SMILES	Resorufin fluor	AID923	A647 fluor	A488 fluor	TSHR ag
COc1ccc(C2C(C(=O)c3ccco3)=C(O)C(=O)N2Cc2cccnc2)cc1OC (stereo not given)	.	1.7%	.	.	1%
Cc1ccc(C(=O)CSc2nnc(-c3ccco3)n2Cc2ccccc2)cc1	i	2.9%	3e-08	i	?
CC1(C)CC(=O)C2=C(C1)N1CCCCC1CC2=O (stereo not given)	i	3.4%	3.2e-08	i	-4%
COC(=O)c1nnn(CC(=O)Nc2ccc(C)c(F)c2)c1C(=O)OC	i	0.7%	1e-09	i	2%
O=C(O)C1CCCCN1S(=O)(=O)c1ccc(Cl)s1 (stereo not given)	.	0.7%	.	.	-8%
Cc1sc2ncnc(N3CCN(c4ncccn4)CC3)c2c1C	i	0.2%	1.2e-09	i	?
CS(=O)(=O)N(CC(=O)Nc1ccc2c(c1)OCO2)c1ccc(Cl)cc1	.	1.2%	.	.	10%
O=C(Nc1ccc2c(c1)OCCO2)c1cnc2n(c1=O)CCS2	.	-3.6%	.	.	0%
CC(=O)Nc1ccc(N2CCN(C(=O)c3cccs3)CC2)cc1	i	0.9%	5.2e-09	i	-7%
CCN(CC(=O)Nc1ccc2c(c1)OCCO2)Cc1cc(=O)oc2c(C)c(C)ccc12	i	0.2%	1e-09	i	?
CN(C)c1ccc(NC(=O)CCCc2ccccc2)cc1	i	-0.2%	3.9e-08	i	-17%
Cc1ccc2nsnc2c1S(=O)(=O)N(Cc1ccco1)Cc1cc2cccc(C)c2[nH]c1=O	i	0.8%	3.4e-08	i	2%
Cc1cc(=O)cc(C)[nH]1	i	-0.4%	1.8e-09	i	12%
CC(C)CO/N=C1/C[C@@H](O)[C@@H](O)[C@@H]2[C@@H]3C(=O)N([C@@H](C)c4ccccc4)C(=O)[C@H]3CC[C@@H]12	.	-1.6%[11.5 µM]	.	.	-4%[11.4 µM]
O=C1c2ccccc2C(=O)N1CCN1CCCCC1	i	-1.8%	6.6e-08	i	5%
COc1ccc(Cn2nnnc2CN2CCc3ccccc32)cc1	i	-1.5%	1e-09	i	?
C=CCN(c1ccc(C(=O)N2CCN(c3ccc(F)cc3)CC2)cc1)S(C)(=O)=O	i	-1.1%	4.5e-08	i	3%
COc1cc(-c2c(C#N)c(=O)[nH]c3c2c(C)nn3-c2ccccc2)ccc1O	i	0.5%	1e-09	i	12%
COc1ccc(C2NC(=O)c3n[nH]c(C)c32)c(OC)c1 (stereo not given)	.	1.1%	.	.	23%
COc1ccc(NC(=O)NCCCN2CCCC2=O)cc1	.	1.8%	.	.	-4%
Cn1cc(C(=O)N2CCN(C(=O)c3ccco3)CC2)c2c3ccccc3n(C)c2c1=O	i	1.7%	1.5e-08	i	2%
CCOC(=O)c1c(C2CCN(C(=O)OCC)CC2)nc2ccccn12	.	-0.6%	.	.	?
O=C(NC1CCCCCCC1)C1CCN(c2nc3ccccc3o2)CC1	i	0.2%	1e-09	i	?
CCc1nc(OCc2ccco2)c2sc3nc4c(cc3c2n1)COC(C)(C)C4	i	0.6%	1e-09	i	?
CC(C)n1c(SC2CCOC2=O)nc2ccccc21 (stereo not given)	i	0.4%	2.4e-09	i	4%

Carrying on:
SMILES	Resorufin fluor	AID923	A647 fluor	A488 fluor	TSHR ag
Cc1ccc(S(=O)(=O)N2CCCSCC2)cc1	i	0.0%	3.2e-09	i	-1%
Cc1ccc(Cn2c(-c3nonc3N)nc3ccccc32)cc1	i	-1.5%	1e-09	i	?
Cc1cccn2c(=O)c(/C=C(\C#N)S(=O)(=O)c3ccccc3)c(N3CCN(C)CC3)nc12	i	.	2.9e-08	i	.
COC(=O)CSc1nnc(-c2ccc(S(=O)(=O)NCc3cccs3)cc2)o1	i	0.1%	5.1e-09	i	-3%
CCn1c(SCC(=O)Nc2cc(C)on2)nnc1-c1ccncc1	i	1.6%	1e-09	i	1%
O=C(CN(C(=O)CCC(=O)Nc1ccccn1)c1ccc2c(c1)OCO2)NCc1ccco1	i	0.9%	6.3e-09	i	1%
Cn1c(=O)c2cc(S(=O)(=O)NCCC(=O)Nc3ccc(Cl)cc3)ccc2n(C)c1=O	i	0.1%	7.4e-09	i	2%
COc1ccc(C)cc1NC(=O)C1CCCCC1C(=O)O (stereo not given)	i	1.3%	1e-09	i	-6%
Cc1cccc(C)c1OCC(=O)NCc1nnc(SCC(=O)NC2CCCCC2)n1C	i	0.7%	4.2e-09	i	-14%
CC(=O)c1c(OC(=O)c2ccco2)c2ccccc2n1C	.	4.4%	.	.	?
